# Compound activity deposited in PubChem by several laboratories.
# BJeLR viability: MLPCN primary cell-based screen for lethality selective to Ras in HRASV12 cells; inhibition, % (concentration not given with the values); BJeLR (HRASV12) viability, CellTiter-Glo ATP luminescence, 48 h; reference of the scale not given here; AID 1554, 2009; actives 0.17% (n = 300,000);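 active = replicate mean above 50%; inconclusive = above 50% but judged a plate artefact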;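 also: 50 nL library stock added to about 25 µL; numbers are from one replicate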
# PrP 5UTR inh: inhibition of PrP 5' UTR reporter expression; inhibition, % (concentration not given with the values); cell-based PrP 5' UTR mRNA reporter, plate reader; AID 488862, 2010; actives 0.35% (n = 340,000);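 active = every replicate at 50% or more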;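 also: 0 = median of the neutral control wells; tested in H4 reporter cells; numbers are from one replicate; inactives centre near -14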
# Autofluor counter: counter-screen for toxin protease inhibitors: compound fluorescence; actives 3.1% (n = 360,000); fluorescence intensity (no concentration beside the values); compound autofluorescence counterscreen, microsphere flow cytometry; stronger effect = higher value;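 active = at least 3 SD above the mean of all compounds, about 16000 in these data; inconclusive = too few beads counted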;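 also: 100 nL of 1 mM stock went into each well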
# Mtb hypoxia rep: PubChem AID 1159583 | M. tuberculosis hypoxia-regulated fluorescent reporter, fluorescence | fluorescence inhibition, % (no concentration beside the values) | actives 0.1% (n = 300,000);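 active = 35 to 45% if threefold the growth effect, above 45% if 1.5-fold the growth effect; inactive = the rest, general growth blockers included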;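 also: wells of about 50 µL received 100 nL stock; 0% = vehicle wells and 100% = reference inhibitor wells; whole bacteria with a GFP reporter of the hypoxia response; strong numbers were not always called active; many hits fall short of the cut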
# ugtP null kill: growth inhibition of ugtP-null S. aureus, primary screen, RN4220 ugtP deletion, OD600. 16 h; some inactives read as strong as hits. growth inhibition, % (test concentration not listed). actives 0.54% (n = 330,000). AID 1259309, 2017;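 active = z-score under -3 and OD600 up to 0.15 on both plates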;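 also: plate controls were untreated wells for no effect and antibiotic for full effect; wells of about 80 µL received 100 nL stock; the first replicate is given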
# Sa RN4220 lethal: growth inhibition of S. aureus RN4220, primary screen, OD600; AID 1259311, 2017; actives 0.33% (n = 330,000); inhibition, % (concentration not given with the values); 16 h;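 active = z-score of -3 or lower and OD600 up to 0.18 on both plates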;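 also: plate controls were untreated cells for no effect and reference antibiotic for full effect; stock transfer was 100 nL into about 80 µL; one replicate is shown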
# Mtb hypoxia rep growth: second read-out of Mtb hypoxia rep, no call of its own (marks repeat the call); growth inhibition, %; measured here: M. tuberculosis growth (absorbance);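 0% = vehicle and 100% = reference antibiotic; read after six days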
# Starred values were filed as active, the others as inactive; ? = inconclusive; . = not tested or not shown; & = joins results of further samples.
# Sample of the layout:
Compound,BJeLR viability,PrP 5UTR inh,Autofluor counter,Mtb hypoxia rep,Mtb hypoxia rep growth,ugtP null kill,Sa RN4220 lethal
O=C1C(=O)c2ccccc2-c2ccccc21,100*,-46&-1,5605,.,.,.,.
c1cnn(-c2nc(N3CCOCC3)nc(N3CCOCC3)n2)c1,-4,-37,5200,14,7,-7,1.3

# This part in full, from the first entry:
Compound,BJeLR viability,PrP 5UTR inh,Autofluor counter,Mtb hypoxia rep,Mtb hypoxia rep growth,ugtP null kill,Sa RN4220 lethal
O=C1C(=O)c2ccccc2-c2ccccc21,100*,-46&-1,5605,.,.,.,.
c1cnn(-c2nc(N3CCOCC3)nc(N3CCOCC3)n2)c1,-4,-37,5200,14,7,-7,1.3
O=C(NCCCO)/C(=C/c1ccco1)NC(=O)c1ccc(Br)o1,-13,3,2160,9,6,7,1.8
c1ccc(OCc2nc3c4c(ncn3n2)-c2ccccc2CC42CCCC2)cc1,-6,-30,11024,12,14,33,-4.8
COc1ccnc2c1c(=O)n(Cc1c(F)cccc1Cl)c(=O)n2C,7,-32,6092,6,5,4,2.6
COc1cc2c(cc1C=O)OC(C)C2 (configuration not stated),5,-7,4153,7,-1,2,1.5
CON/C=C(\C=Nc1ccc(F)cc1)c1ncc(C(F)(F)F)cc1Cl,-3,-23,5983,13,17,92*,-3.1
COC(=O)c1cc(NC(=O)CN(C)C2CCS(=O)(=O)C2)cc(C(=O)OC)c1 (configuration not stated),.,-22,3052,4,8,9,5.0
CC(NC(=O)c1ccc(NS(C)(=O)=O)cc1)c1ccccc1 (configuration not stated),-6,-17,3221,5,2,3,7.5
COc1ccc(/C=N/NC(=O)c2ccc3c(c2)OCCO3)cc1[N+](=O)[O-],9,-5,2007,.,.,.,.
Cc1ccc(C(C(=O)NCc2ccco2)N(C(=O)CNC(=O)c2cccs2)c2c(C)cc(C)cc2C)cc1 (configuration not stated),-11,-16,4029,14,-2,7,2.1
Cc1ccc(C(=O)Nc2ncc3c(Cl)cccc3n2)cc1,18,19,4746,.,.,-5,-2.3
COc1ccc(Nc2nc(N3CCN(S(C)(=O)=O)CC3)nc3ccccc23)c(OC)c1,-4,1,3064,.,.,.,.
COc1ccc(OC)c(NC(=O)CN2C(=O)C(C)N(c3ccc(C)cc3)C2=O)c1 (configuration not stated),.,-5,3997,-3,1,-2,1.1
O=C(NCc1ccccn1)c1cnc2sccn2c1=O,3,-18,4748,.,.,-6,0.0
Cc1oc(CC(C)C)cc1C(=O)NCCCC(=O)O,-3,-4,4829,16,10,7,0.5
O=C(CSc1nnc(NC(=O)C2CCC2)s1)Nc1ccc(N2CCOCC2)cc1,-10,-16,9229,4,6,-5,1.0
COc1ccc(N2CC(O)=C(c3nc4ccccc4s3)C2=N)cc1,2,-26,11795,3,23,-15,1.6
COc1ccc(N2C(=O)CC(N3CCN(c4ccccc4OC)CC3)C2=O)cc1 (configuration not stated),-10,-14,4068,-4,5,1,1.6
O=C(NNC(=O)c1ccncc1)Nc1ccc(Br)cc1,.,-26,4094,11,11,1,0.0
CC(C)C(=O)NC(c1ccco1)c1c(O)ccc2ccccc12 (configuration not stated),-3,-22,11191,10,6,3,7.8
CC(C)Oc1ccc(C(=O)NC2CCN(Cc3ccccc3)CC2)cc1,-2,-2,4359,4,-4,5,1.3
O=C(NC(=O)c1c(F)cccc1F)Nc1ccccc1SC(F)F,-1,-9,5915,0,12,-3,-0.1
COCCCNC(=S)NN=Cc1ccc(N(C)C)cc1Cl,.,.,.,8,0,-1,4.6
CCc1nnc(NC(=O)C2CCN(c3nc(C)cc(C)n3)CC2)s1,-1,-17,24756*,0,10,-5,-2.6
O=C(NC1CC1)c1c[nH]c2ccc(S(=O)(=O)Nc3cccc(C(F)(F)F)c3)cc2c1=O,-3,-15,3448,9,14,8,-1.7
CNC(=O)COc1ncnc2sccc12,.,2,4737,.,.,2,4.5
O=C(NCCC1=CCCCC1)C1CCN(S(=O)(=O)c2cnc[nH]2)CC1,-1,-12,3217,.,.,8,0.0
CCc1cc2c(=O)n(-c3ccccc3)c(SCC(=O)O)nc2s1,-6,-19,3864,12,-2,1,0.9
O=C(O)c1ccccc1Nc1ccc2nonc2c1[N+](=O)[O-],16,-2,3387,-1,8,-1,-0.4
O=C1CC(N2CCC(n3c(=O)[nH]c4ccccc43)CC2)C(=O)N1c1ccc(F)cc1 (configuration not stated),7,-15,4774,.,.,-7,0.8
Cc1cc(C)c(C)c(OCC(=O)NCc2nc(-c3ccccc3)no2)c1,7,-12,5098,.,.,-2,-2.9
CCn1c(Cc2ccccc2)nnc1SCC(=O)Nc1ccc(N)cc1,-1,-17,4968,-3,7,-12,2.5
COc1ccc(-c2nc3ccc(C)cn3c2NCc2ccccc2)cc1SC1CCCCC1,-10,4,4190,.,.,.,.
CCc1ccc(NC(=O)C2CCCN2S(=O)(=O)c2ccc3c(c2)n(C)c(=O)c(=O)n3C)cc1 (configuration not stated),7,-15,4414,5,1,-3,3.3
CC(=O)N/C(=C/c1ccccc1)C(=O)NCCO,-3,-9,3308,12,5,15,5.9
N=c1c2c(-c3ccccc3)c(-c3ccccc3)n(Cc3ccco3)c2ncn1CCCN1CCOCC1,-3,2,4305,21,21,6,-3.0
CC(/C=N/NC(=O)c1cc(-c2ccccc2)nc2ccccc12)=C\c1ccco1,40,-78,2557,.,.,.,.
O=C(CCSCCC(=O)NCc1ccco1)NCc1ccco1,2,.,.,.,.,-4,1.0
C=CCn1c(O)c(C(=O)CCCCCC)c(=O)[nH]c1=O,5,-1,2117,21,-19,20,28
CCC(OC(=O)c1cccs1)C(=O)NCc1ccc(C)cc1 (configuration not stated),2,-6,4137,9,2,5,-0.6
CN(C(=O)COC(=O)Cc1c(Cl)cccc1Cl)c1c(N)n(Cc2ccccc2)c(=O)[nH]c1=O,0,-33,5964,4,7,6,-6.0
COc1ccccc1NC(=O)N1CCN(c2ccccc2F)CC1,-13,8,4108,4,7,8,5.8
Cc1cccc(-c2nc3c(c(SCC(=O)N4CCOCC4)n2)CCCC3)c1,-13,-10,3363,7,9,-2,10
COc1ccc2c(c1)NC1(O)c3ccccc3C(=O)C21O (configuration not stated),-14,-14,12429,2,0,-5,2.0

# Part of the list above in order of SMILES length, descending.
Compound,BJeLR viability,PrP 5UTR inh,Autofluor counter,Mtb hypoxia rep,Mtb hypoxia rep growth,ugtP null kill,Sa RN4220 lethal
CN(C(=O)COC(=O)Cc1c(Cl)cccc1Cl)c1c(N)n(Cc2ccccc2)c(=O)[nH]c1=O,0,-33,5964,4,7,6,-6.0
N=c1c2c(-c3ccccc3)c(-c3ccccc3)n(Cc3ccco3)c2ncn1CCCN1CCOCC1,-3,2,4305,21,21,6,-3.0
O=C1CC(N2CCC(n3c(=O)[nH]c4ccccc43)CC2)C(=O)N1c1ccc(F)cc1 (configuration not stated),7,-15,4774,.,.,-7,0.8
CC(/C=N/NC(=O)c1cc(-c2ccccc2)nc2ccccc12)=C\c1ccco1,40,-78,2557,.,.,.,.
COc1ccc(-c2nc3ccc(C)cn3c2NCc2ccccc2)cc1SC1CCCCC1,-10,4,4190,.,.,.,.
Cc1cccc(-c2nc3c(c(SCC(=O)N4CCOCC4)n2)CCCC3)c1,-13,-10,3363,7,9,-2,10
Cc1cc(C)c(C)c(OCC(=O)NCc2nc(-c3ccccc3)no2)c1,7,-12,5098,.,.,-2,-2.9
CCn1c(Cc2ccccc2)nnc1SCC(=O)Nc1ccc(N)cc1,-1,-17,4968,-3,7,-12,2.5
CCC(OC(=O)c1cccs1)C(=O)NCc1ccc(C)cc1 (configuration not stated),2,-6,4137,9,2,5,-0.6
COc1ccccc1NC(=O)N1CCN(c2ccccc2F)CC1,-13,8,4108,4,7,8,5.8
O=C(CCSCCC(=O)NCc1ccco1)NCc1ccco1,2,.,.,.,.,-4,1.0

# New compounds follow.
Compound,BJeLR viability,PrP 5UTR inh,Autofluor counter,Mtb hypoxia rep,Mtb hypoxia rep growth,ugtP null kill,Sa RN4220 lethal
O=C(O)c1cnc(-c2ccccc2)nc1Oc1ccc(Cl)cc1,.,-20,4588,3,5,4,3.8
CC1(C(=O)NN=Cc2ccc([N+](=O)[O-])o2)CC1(Br)Br (configuration not stated),.,.,.,1,7,89*,82
COc1ccc(-c2nn(-c3ccccc3)cc2/C=C/C(=O)N2CCOCC2)cc1OC,-2,-23,4326,-5,-14,-14,15
O=[N+]([O-])c1ccc(S(=O)(=O)c2ccccc2)nc1,5,-7,4189,.,.,.,.
COc1ccc(Br)cc1-c1noc(-c2ccncc2)n1,-6,-6,3510,.,.,12,8.3
Cc1cccc(-c2nnc(NC(=O)c3cccs3)s2)c1,-3,-43,5390,2,2,-6,5.2
Cc1ccccc1N1C(=O)c2ccccc2C1O (configuration not stated),-5,-3,3049,1,-10,1,1.1
COC(=O)C1CCN(C(=O)COC(=O)c2ccc(OC)c(S(=O)(=O)N3CCCc4ccccc43)c2)CC1,-23,-15,3334,.,.,.,.
O=C(CNCc1ccccc1)NC1C2CC3CC(C2)CC1C3 (configuration not stated),-2,-12,3504,10,16,4,0.9
Cc1cccc(-n2c(C)cc(/C=N/O)c2C)c1,-2,-31,10669,.,.,.,.
Cc1ccccc1SCC(=O)NC1CCOC1=O (configuration not stated),0,-9,22927*,10,7,12,9.4
[N-]=[N+]=NC1c2ccccc2C(=O)N1Cc1ccccc1 (configuration not stated),-6,-43,4289,-10,13,18,7.5
Cc1cccc(C)c1NC(=O)CSc1nc(N2CCOCC2)nc(N2CCOCC2)n1,-10,-5,7089,1,3,5,2.9
O=C(CN1CCN(Cc2ccccc2)CC1)Nc1cccc(S(=O)(=O)N2CCCCCC2)c1,6,-10,4038,17,6,1,5.1
CCCC(C)C(=O)Nc1ccc(C(N)=O)cc1 (configuration not stated),-2,-23,?,-4,13,-1,1.4
O=C(CN1CCCCC1)NNC(=O)c1ccc([N+](=O)[O-])cc1,5,-19,5275,7,2,2,4.3
CC(C)NC(=O)c1ccccc1NS(=O)(=O)c1ccc(Br)s1,7,-17,5737,2,-6,-1,1.5
CCOC(=O)[C@H]1[C@H]2COc3cc(OC)ccc3[C@@H]2N2C(=O)N(c3cccc(Cl)c3)C(=O)[C@@]12C,19,-24,2907,.,.,.,.
C=CCn1cc(C(=O)OC)c(=O)c2cc(S(=O)(=O)N3CCCCCC3)ccc21,0,-5,4530,11,11,5,7.5
C=CCNC(=S)Nc1sc2c(c1C(=O)OCC)CCN(C(=O)OCC)C2,0,-14,2625,6,5,0,9.2
O=C1CC(=O)C(n2cncn2)C(c2ccc(Cl)cc2Cl)C1 (configuration not stated),-3,-19,8212,-2,0,-2,-1.2
COc1ccc(NCC(=O)NN=C(C)c2cc3ccccc3o2)cc1,.,.,.,12,13,-3,2.2
O=[N+]([O-])c1ccc2nc(SCc3cn4ccccc4n3)[nH]c2c1,-9,-21,2556,4,-2,1,0.3
COc1ccc(N2CC(O)=C(c3nc(-c4ccc(Cl)cc4)cs3)C2=N)cc1,0,-16,4183,12,0,5,11
CN(C(=O)COC(=O)Cn1cnc2ccccc21)C1CCCCC1,.,-29,3699,10,13,9,3.6
CCO[C@H]1OC(C(=O)NC2CC2)=C[C@@H](C)[C@@H]1CCCO,0,-7,2972,.,.,.,.
CS(=O)(=O)Nc1ccc(-c2ccc(/C=C3\SC(N)=NC3=O)o2)cc1,4,-20,2978,.,.,.,.
C[C@H](NC(=O)OC(C)(C)C)c1nnc(SCC(=O)Nc2ccc(Br)cc2)o1,-4,-8,16779*,1,5,5,6.8
CCOC(=O)c1c(NC(=O)CSc2nc3c(c(=O)n(C)c(=O)n3C)n2C(C)C)sc(C)c1C,-3,-26,6780,17,6,2,2.0
CCC1CCc2c(sc(NC(=O)c3ccco3)c2C(N)=O)C1 (configuration not stated),2,-97,6182,-7,5,-26,2.5
COc1ccc(CCCC(=O)N/N=C/c2cccc(OC)c2O)cc1C,-3,-1,2373,.,.,.,.
COc1cccc(CCC(=O)N(C)C2CCCN(Cc3ccccc3F)C2)c1 (configuration not stated),-5,3,3255,9,-2,20,5.1
Nc1nnc(SCc2c(F)cccc2Cl)s1,2,-16,2950,1,3,3,-2.6
